Ab BasE inh = blocks the Acinetobacter baumannii siderophore enzyme BasE. purified BasE, fluorescence polarization binding displacement. inhibition, % (concentration not given with the values). 84,000 compounds, 0.1% hits;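 active means both replicates above 25% with normal brightness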;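 further: 0% = negative plate control signal and 100% = positive plate control signal; stock transfer was 100 nL into about 30 µL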
KSHV LANA nucl = inhibitors of KSHV LANA binding to nucleosomes; FITC-LANA1-23 / chicken nucleosome fluorescence polarization; stronger effect = lower value; z-score (test concentration not listed); 51,000 compounds, 0.3% hits; AID 720717;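 active means both repeat wells score below -2 in polarization z-score versus plate sample wells, excluding overly bright wells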;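 further: 100 nL library stock added to about 30 µL; numbers are from one replicate; some results filed as inactive read as strong as hits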
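Material: Purified chicken nucleosomes with FITC-labelled LANA N-terminal peptide (1-23) | Reagent: 50 nM FITC-LANA1-23 probe | Medium: TEN-BT buffer, pH 7.5 | Times: 10–45 min incubation at room temperature | Detection: Fluorescence polarization | Replication: Duplicates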
* hit, by the source's call; x = no result given; & = joins results of further samples. This is a subset; count on the stated rates, not on these rows.

SMILES	Ab BasE inh	KSHV LANA nucl
O=C1c2ccccc2C(=O)N1/N=C/c1cn(-c2ccccc2)nc1-c1cc2ccccc2o1	1.0	x
Cc1cc(C)c(-n2c(O)c(C=Nc3cccc(O)c3)c(=O)[nH]c2=O)c(C)c1	1.3	x
COC(=O)C1=NC=CN2CCS(=O)(=O)N=C12	1.3	x
COC(=O)c1ccc(CN2CCCC(c3nc4ccccc4[nH]3)C2)o1 (stereo not given)	-1.1	-0.161
COC(=O)c1c(NC(=O)C(C)Oc2ccccc2)sc2c1-c1ccccc1CC2 (stereo not given)	0.4	x
Cc1ccccc1NC(=O)Cc1nc(CSc2nnnn2C)cs1	0.4	x
N#CC(C1=NS(=O)(=O)c2ccccc21)c1nc2ccccc2n1Cc1ccccc1 (stereo not given)	2.9	x
O=C(c1ccccc1)N1CCN(C(=O)c2ccc3c(c2)OCO3)CC1	-2.0	x
Cc1ccc(Nc2nc(C)cc(C)c2C#N)cc1	1.1	0.956
CN(CCO)Cc1ccc2c(c1)OCO2	1.6	-0.983
CCSc1nc2c(c(=O)[nH]1)C(c1ccncc1)C(C(=O)OC)=C(C)N2 (stereo not given)	1.4	x
COC(=O)Cn1c(SCc2ccccc2)nc2ccccc21	2.4	x
CSc1nnc(C2CCCN(CC(=O)NCc3cccs3)C2)n1C (stereo not given)	2.2	-0.751
Cc1ccc2c(c1)c1nc3ccccc3nc1n2Cc1ccccc1	-0.4	x
CC(C)CC1NC(=O)N(Cc2ccc(CN3C(=O)NC(CC(C)C)C3=O)cc2)C1=O (stereo not given)	-1.8	x
NS(=O)(=O)c1cc2c(cc1C(F)(F)F)NCNS2(=O)=O	0.0&-0.7	-0.185&-0.093&0.748
CCCN(CCC)C(=O)Cc1ccc(F)cc1	-2.9	0.371
O=C(CCCn1c(=O)c2sccc2n(Cc2ccc(F)cc2Cl)c1=O)NCc1ccco1	-1.4	-1.55
CCOC(=O)c1oc2ccc(Br)cc2c1CSc1nnc(C(F)(F)F)n1C	-0.6	x
CCOC(=O)c1ccc2[nH]c(C(=O)OCC)c(CCC(=O)O)c2c1	0.6	x
Cn1nc(C(=O)Nc2ccc3c(c2)OC2(CCCC2)O3)ccc1=O	0.3	x
CCn1ncc(C2=NOC(C(=O)N3CCCc4ccccc43)C2)c1C (stereo not given)	-2.3	-1.28
CCOc1ccc(NC(=O)Cc2cccc3c(S(=O)O)cccc23)cc1	0.0	-0.607
Cc1[nH]c2ccccc2c(=O)c1CN(C)C	-1.2	0.857
CCN(CC)C(=O)c1sc2nc3c(cc2c1N)C1CCN3CC1	6.3	-0.277

Grouped by structure, the compounds so far containing a cyano group
SMILES	Ab BasE inh	KSHV LANA nucl
N#CC(C1=NS(=O)(=O)c2ccccc21)c1nc2ccccc2n1Cc1ccccc1 (stereo not given)	2.9	x
Cc1ccc(Nc2nc(C)cc(C)c2C#N)cc1	1.1	0.956

Next compounds follow:
SMILES	Ab BasE inh	KSHV LANA nucl
CN(C)C(=O)Nc1ccccc1	0.7	x
COc1ccc(CNC(=O)C2CC(O)CN2C(=O)Nc2ccccc2)cc1 (stereo not given)	0.2	-0.1
CCOC(=O)c1sc(N)c(C#N)c1CSc1nc2sc3c(c2c(=O)n1C)CCCC3	-50.0	x
CCc1cccc(C(C)C)c1NS(=O)(=O)c1ccc(C)cc1	3.3	x
CC(=O)NC(=S)Nc1cccc(-c2nc3c(ccc4ccccc43)o2)c1	-0.5	-0.144
Cc1cc(C)cc(NC(=O)CNCC(F)(F)F)c1	-0.5	x
COC(CNC(=S)Nc1ccc(Cl)cc1)OC	1.2	0.682
c1nnc2c3c4c(sc3ncn12)CCC4	0.7	-0.132
CCOC(=O)c1[nH]cnc1C(=O)Nc1ccc(C)cc1	3.0	x
Cc1ccc(NS(=O)(=O)c2ccccc2C(F)(F)F)cc1C	-2.9	x
O=C(c1cc(C2CC2)[nH]n1)N1CCN(c2cccc(C(F)(F)F)c2)CC1	4.3	-0.079
COC(=O)c1ccc(COc2coc(CN3CCc4ccccc4C3)cc2=O)cc1	-1.1	1.01
CCOc1cc2c(=O)[nH]c3c(C(=O)NCc4ccco4)sc(=S)n3c2cc1OCC	0.3	-0.547
CCOC(=O)/C(=N/O)C1=NN=C(N)SC1	0.6	x
CN(CC(=O)O)c1ncnc2sccc12	-1.3	x
Cc1nn(-c2ccccc2)nc1CNS(=O)(=O)c1ccc(-c2ccno2)s1	-2.5	1.43
O=c1oc2ccccc2c(O)c1C=Nc1ccc(C(F)(F)F)cc1	x	0.356
COc1cc(C(=O)NCc2ccc(OCCN(C)C)cc2)cc(OC)c1OC	-0.9&-4.3	1.34&0.496&-0.812
CCc1c(C)[nH]c(C(=O)OC(C)(C)C)c1C	-0.9	0.227
CC(C)NC(=S)NN(c1ccccc1)c1ccccc1	-1.4	x
O=C(OC1=CC(=O)c2cccc3cccc1c23)c1ccccc1	-3.5	x
O=C(Nn1cnnc1)c1ccc(OC(F)(F)C(F)C(F)(F)F)cc1 (stereo not given)	-3.5	x
O=C(CSc1nnc(CNC(=O)c2ccco2)o1)NCc1ccc2c(c1)OCO2	3.5	-0.256
O=C(Nc1nc2ccc(Br)cc2s1)c1cc2ccccc2o1	-2.5	x
O=C(NCc1ccco1)c1cc(S(=O)(=O)NCc2ccco2)c[nH]1	2.9	x

For reference, part of the list above.
SMILES	Ab BasE inh	KSHV LANA nucl
c1nnc2c3c4c(sc3ncn12)CCC4	0.7	-0.132
CCOC(=O)c1[nH]cnc1C(=O)Nc1ccc(C)cc1	3.0	x

Next entries:
SMILES	Ab BasE inh	KSHV LANA nucl
COC(=O)c1ccc(NC(=O)CSc2nnc3sc4ccccc4n23)cc1	3.5	x
CCC(COc1nnnc2ccccc12)NC(=O)C1CCN(S(C)(=O)=O)CC1 (stereo not given)	1.8	-1.17
CC1=NCCCN1C(=O)c1c(-c2c(Cl)cccc2Cl)noc1C	1.7	-0.0705
O=c1cc(CN2CC(O)Cc3ccc4ccccc4c32)nc2sccn12 (stereo not given)	2.0	x
O=C(CSc1ccc2c(c1)OCCO2)N1CCc2ccccc21	2.2	x
CC1CCC(C#N)(N(C)C(=O)CSc2nc(C3CC3)n(-c3ccccc3)n2)CC1 (stereo not given)	2.2	x
COC(=O)CCN1C(=O)/C(=C\c2ccc(N(C)C)cc2)SC1=S	-4.6	x
CCC(=O)c1c[nH]c(C(=O)NCc2cccc(C(F)(F)F)c2)c1	x	0.624
CCn1c(C)nc2cc(C(=O)O)ccc21	-1.5	1.13
Cc1sc2nc(SCC(=O)N(CCO)CCO)n(C3CCCCC3)c(=O)c2c1C	-2.2	0.255
Cc1cc(/C=N/N2CCOCC2)c(C)n1-c1cccc2ccccc12	4.6	x
O=C(COC(=O)C1CCN(C(=O)Nc2ccccc2)CC1)Nc1ccc2c(c1)OCO2	1.6	x
CCCCNC(=O)c1ccc2c(c1)ncn2C1CCCC1	-1.0	-0.467
COc1ccc(CCNc2nc(C)cc(C)n2)cc1OC	-0.1	-1.13
Cc1ccc(S(=O)(=O)Nc2ccc3c(c2)nc2n3CCN(Cc3ccccc3)C2)cc1	-2.5	0.171
Cc1[nH]c2ccccc2c1Cc1nnc(SCc2ccccc2)o1	0.7	-1.61
N#CCCn1cc(C(=O)Nc2ccc(C(=O)O)cc2)c(-c2cccc(Br)c2)n1	1.5	0.153
Cc1cc(NC(=O)CCC(=O)N(Cc2ccccc2)C2(C(=O)NC3CCCCC3)CCCC2)no1	3.5	-0.648
O=C1Nc2ccc(Cl)cc2[C@@](C#CC2CC2)(C(F)(F)F)O1	x	-0.259&-0.155
O=C(Nc1cc(-c2cccc(F)c2)no1)c1ccc2c(Cl)c3c(nc2c1)CCCC3	0.0	0.301
Clc1ccc(-c2cnc(Oc3ccccc3)nc2)cc1	x	-0.331
COC(=O)N1CCN(c2ccc(C)cc2)C(C)C1 (stereo not given)	0.7	0.0935
O=C(O)Cn1c(CN2CCCCC2)nc2ccccc21	-0.5	-0.118
Cc1cccc(O)c1O	9.9	x
O=C1/C(=C/c2ccncc2)COc2ccccc21	0.4	0.548

Structures listed so far that have a thiophene ring, fused or not (9):
SMILES	Ab BasE inh	KSHV LANA nucl
COC(=O)c1c(NC(=O)C(C)Oc2ccccc2)sc2c1-c1ccccc1CC2 (stereo not given)	0.4	x
CSc1nnc(C2CCCN(CC(=O)NCc3cccs3)C2)n1C (stereo not given)	2.2	-0.751
O=C(CCCn1c(=O)c2sccc2n(Cc2ccc(F)cc2Cl)c1=O)NCc1ccco1	-1.4	-1.55
CCN(CC)C(=O)c1sc2nc3c(cc2c1N)C1CCN3CC1	6.3	-0.277
CCOC(=O)c1sc(N)c(C#N)c1CSc1nc2sc3c(c2c(=O)n1C)CCCC3	-50.0	x
c1nnc2c3c4c(sc3ncn12)CCC4	0.7	-0.132
CN(CC(=O)O)c1ncnc2sccc12	-1.3	x
Cc1nn(-c2ccccc2)nc1CNS(=O)(=O)c1ccc(-c2ccno2)s1	-2.5	1.43
Cc1sc2nc(SCC(=O)N(CCO)CCO)n(C3CCCCC3)c(=O)c2c1C	-2.2	0.255

(cont.)
SMILES	Ab BasE inh	KSHV LANA nucl
COc1cc2c(cc1OC)CN(C(=O)c1ccc3c(c1)CCC3)CC2	0.5	x
Cc1cc(C)nc(SCC(=O)OCc2cc(=O)n3cc(Br)ccc3n2)n1	-1.1	x
O=C(NCCCn1ccnc1)c1cnn2c1NC(c1ccccc1)CC2C(F)(F)F (stereo not given)	-2.0	2.7
Cc1nnc(-c2cccc(S(=O)(=O)N3CCN(C(c4ccccc4)c4ccccc4)CC3)c2)o1	0.1	0.0395
N#CCCn1nc(-c2ccc(F)cc2)ccc1=O	1.0	x
O=C1CCCN1c1ccc(S(=O)(=O)NC2CC2)c(Cl)c1	1.2	0.177
CC(C)(C)n1cnc2cc(NCc3cccs3)ccc21	1.9	-0.132
O=C(CCCn1c2ccccc2c2cn[nH]c(=O)c21)NCC1CCCO1 (stereo not given)	-0.4	-0.752
O=C(Oc1ccccc1-c1nnco1)c1ccc(Cl)cc1	-0.6	-0.069
C=CCN1C(=O)C(Cc2ccc(O)cc2)NC1=S (stereo not given)	1.2	x
CCn1c(Cc2ccccc2)nnc1SCc1ccc(C#N)cc1	1.0	-0.167
COCCNC(=O)c1ccccc1NS(=O)(=O)c1ccc(NC(C)=O)cc1	0.5	-0.417
CC(=O)Nc1sc(C)c(C)c1CN1CCCC(C)C1 (stereo not given)	1.1	x
CCOC(=O)c1c(C)[nH]c(C)c1C(=O)COC(=O)CSc1nc2ccccc2o1	0.1	x
COc1cccc(C2=NS(=O)(=O)N(C)C(C(=O)N3CCCC3)=C2)c1	2.5	-0.941
CC(C)Oc1cccc(C(=O)n2cnnc2N)c1	0.1	-0.494
CCCN1CCN(C(=O)CC(=O)Nc2ccc3nc4n(c(=O)c3c2)CCCCC4)CC1	1.2	-0.962
CN1C/C(=C\c2cccs2)C(=O)/C(=C/c2cccs2)C1	x	-0.637&0.161
N#Cc1ccc(CSc2nc(-c3cccs3)c(-c3cccs3)[nH]2)cc1	0.9	x
O=CNc1ccccc1Oc1c(F)c(F)c(F)c(F)c1F	-0.9	-1.58
CC(C)(CNC(=O)Cc1ccccc1F)N1CCOCC1	2.9	x
Cc1cccc(C(=O)Nc2ccc(N(C)C)cc2)c1	0.6	-1.15
COc1cc(C(=O)NCc2nc3ccccc3n2C(C)C)cc(OC)c1OC	-0.7	-0.145
O=C(CSC1=NCCS1)c1ccc(Cl)s1	-2.2	x
CN(Cc1cccs1)S(=O)(=O)c1ccc(Cl)nc1	1.2	x

Next section:
SMILES	Ab BasE inh	KSHV LANA nucl
COc1ccccc1CNc1nc(-c2cccnc2)nn1C(=O)c1cccnc1	3.3	-0.005
Cn1/c(=N/N=C2\CCCCC2=O)sc2ccccc21	-1.7	x
CCCN(CCC)S(=O)(=O)c1cccc(S(C)(=O)=O)c1	-0.6	0.558
CS(=O)(=O)c1ncc(Cl)c(C(=O)N2CCN(C(c3ccccc3)c3ccccc3)CC2)n1	-1.9	1.17
O=C(CN1c2ccccc2S(=O)(=O)c2ccccc21)NC1CCCCCC1	1.2	-0.216
Cc1ccc2c(c1)sc(=NC(=O)/C=C/c1ccc(Br)o1)n2C	-0.5	x
CC1CCCC(=O)C1 (stereo not given)	0.7	x
CCC(=O)Nc1ccc(C(=O)n2nnc3ccccc32)cc1	-0.5	-0.506
O=C(c1ccccc1NS(=O)(=O)c1cccc2nsnc12)N1CCOCC1	0.7	-0.26
Cc1cc(C(=O)CSc2nnc(-c3c[nH]c4ccccc34)o2)c(C)n1C1CC1	-3.2	x
COc1ccc(C2C(C(=O)Nc3cccc(C)n3)c3ccccc3C(=O)N2C)cc1 (stereo not given)	-3.7	0.38
Cc1ccc(NCc2nnc(SCc3cc(C)ccc3C)o2)c(C)c1	-0.4	0.844
Cc1ccc2c(c1)c1nc3n(c(=O)c1n2CC(=O)NCc1ccco1)CCS3	-0.6	0.499
CCNC(=O)c1cccc(NC(=O)CCCc2nc3ccccc3c(=O)[nH]2)c1	-5.7	x
O=c1cnn(Cc2cccc(C(F)(F)F)c2)c2ccccc12	4.0	x
O=c1cnnc(N2CCCCC2)[nH]1	2.2	-0.714
Cc1cc(=O)n2c3ccccc3nc2n1Cc1ccccc1	-0.2	-0.431
CN(Cc1ccco1)C(=O)c1noc2c1CSc1ccccc1-2	-3.2	-0.364
O=C1c2ccccc2NC(c2ccccc2)N1CCCN1CCOCC1 (stereo not given)	-1.3	x
S=C(Nc1ccccc1)Nc1nc2ccccc2n1Cc1ccc(Cl)cc1	0.8	x
CCN(c1ccccc1)c1nc2nonc2nc1N(C)C	-0.2	0.33
Cc1cc(C)c(-c2cc(C(F)(F)F)nc(-c3ccccc3)n2)c(=O)[nH]1	0.8	-0.462
Cc1ccc(S(=O)(=O)NC2CC2)cc1C(N)=O	2.2	0.22
O=S(=O)(Nc1ccc(SC(F)F)cc1)c1ccccc1C(F)(F)F	0.4	x
CC(=O)NC(C(=O)O)C(C)(C)SN=O (stereo not given)	0.0	-0.42
